Vaccinia inh: blocks a specific stage of Vaccinia orthopoxvirus infection; Vaccinia-infected cells, mCherry/Venus stage reporter fluorescence; active compounds read low; some inactives read as strong as hits; activity change (mCherry), % (test concentration not listed); actives 0.01% (n = 89,000); AID 1053133;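 active = mCherry past -33% and 40 or more points under the early reporter, replicates agreeing; inconclusive = past -33% without that gap or agreement; tested in A549 cells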;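 also: scaled between vehicle wells and reference inhibitor wells; 23 nL library stock went into each well; one replicate is shown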
Vaccinia inh Venus: recorded beside Vaccinia inh, whose call it bears; activity change (Venus), %; measured here: Venus reporter, other viral stage;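 negative = less Venus signal; first of two replicates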
The depositor's hits bear a star; ? = inconclusive; nt = no result given. Only part of the results is shown. The share of hits here may be higher or lower than overall.

SMILES	Vaccinia inh	Vaccinia inh Venus
Cc1noc(C)c1NC(=O)Nc1ccc2c(c1)CC(=O)N([C@@H](C)CO)C[C@H](C)[C@@H](CN(C)Cc1ccc3c(c1)OCO3)O2	4	5
C[C@@H]1CN([C@@H](C)CO)C(=O)c2cc(NC(=O)NC3CCCCC3)ccc2O[C@@H]1CN(C)Cc1ccc(C(=O)Nc2ccccc2N)cc1	9	2
COc1cccc(-c2ccc3c(c2)O[C@H](CN(C)C(=O)C2CCC2)[C@@H](C)CN([C@H](C)CO)S3(=O)=O)c1	?	nt
C[C@H](CO)N1C[C@H](C)[C@@H](CN(C)Cc2ccc(C(F)(F)F)cc2)Oc2c(NC(=O)c3nc4ccccc4s3)cccc2C1=O	-3	-5
COc1cccc(CNC(=O)c2cc3c(c(-c4cccc(-c5ccc(C#N)cc5)c4)n2)[C@H](CCO)N([S@@](=O)C(C)(C)C)C3)c1	-32	-11
CCCNC(=O)C[C@@H]1CC[C@H]2[C@@H](COC[C@H](O)CN2C(=O)Nc2ccc3c(c2)OCO3)O1	20	5
C[C@@H]1CN([C@@H](C)CO)S(=O)(=O)c2ccc(-c3ccccc3)cc2O[C@H]1CN(C)C(=O)CN(C)C	-2	-7
C[C@@H]1CN([C@@H](C)CO)C(=O)c2cccc(N(C)C)c2O[C@H]1CN(C)Cc1ccccc1	3	4
CCN(C[C@@H]1N[C@H](CO)[C@@H]1c1ccccc1)C(=O)c1ccccc1	-1	-2
Cc1noc(C)c1S(=O)(=O)Nc1ccc2c(c1)CC(=O)N([C@H](C)CO)C[C@@H](C)[C@@H](CN(C)S(=O)(=O)c1cn(C)cn1)O2	27	19
CO[C@@H](CN(C)C(=O)c1ccccc1F)[C@H](C)CN([C@@H](C)CO)S(=O)(=O)c1ccc(Cl)cc1	7	4
COc1ccccc1NC(=O)N1CC[C@@H]2[C@H]1c1cc(-c3cccc(F)c3)ccc1N(C)[C@H]2CO	?	nt
O=C(Nc1nccs1)[C@H]1[C@H](CO)[C@H]2Cn3c(cccc3=O)[C@@H]1N2C(=O)C1CCCCC1	9	4
CC(C)NC(=O)N1[C@H](CO)[C@@H](c2ccccc2)C12CN(Cc1ccc(Cl)cc1)C2	-3	3
O=S(=O)(c1ccccc1F)N1CC[C@@H]2[C@H]1c1cc(-c3ccccc3)ccc1N[C@@H]2CO	?	nt
C[C@H]1CN([C@@H](C)CO)C(=O)c2cc(C3=CCCCC3)cnc2O[C@H]1CN(C)C(=O)Cc1cccnc1	18	4
C[C@@H]1CN([C@@H](C)CO)C(=O)c2cc(NS(=O)(=O)c3ccc(F)cc3)ccc2O[C@@H](C)CCCCO[C@@H]1CN(C)Cc1ccncc1	-5	-8
O=C(C1CCCCC1)N1CC2(C1)[C@H](c1ccccc1)[C@@H](CO)N2Cc1ccc(Cl)cc1	-26	-17
O=C1OC[C@@H](c2ccccc2)n2cc(/C=C/c3ccccc3)cc21	14	9
CO[C@H]1CN(C)C(=O)c2cc(NC(=O)C3CC3)ccc2OC[C@H](C)N(CCC(F)(F)F)C[C@H]1C	1	8
C[C@H]1CCCCO[C@H](CN(C)CC2CCCCC2)[C@@H](C)CN([C@@H](C)CO)C(=O)c2cc(NC(=O)Nc3ccc4c(c3)OCO4)ccc2O1	?	nt
CO[C@@H]1CN(C)C(=O)c2cc(NC(=O)Nc3cccc(F)c3)ccc2OC[C@H](C)N(C(C)=O)C[C@H]1C	7	10
Cc1noc(C)c1NC(=O)N(C)C[C@@H]1Oc2ccc(NC(=O)C3CCCCC3)cc2C(=O)N([C@@H](C)CO)C[C@@H]1C	0	13
O=C(Cc1ccccn1)N1CCCCN2[C@H](C1)[C@@H](c1ccc(Br)cc1)[C@@H]2CO	10	5
CC(C)NC(=O)NCC[C@@H]1CC[C@H](NC(=O)Nc2ccccc2)[C@H](CO)O1	-1	1

In another format: entries from further up.
Cc1noc(C)c1S(=O)(=O)Nc1ccc2c(c1)CC(=O)N([C@H](C)CO)C[C@@H](C)[C@@H](CN(C)S(=O)(=O)c1cn(C)cn1)O2
  Vaccinia inh = 27; Vaccinia inh Venus = 19
CO[C@@H](CN(C)C(=O)c1ccccc1F)[C@H](C)CN([C@@H](C)CO)S(=O)(=O)c1ccc(Cl)cc1
  Vaccinia inh = 7; Vaccinia inh Venus = 4

Compound profiles, from the list above. Screens in order: Vaccinia inh	Vaccinia inh Venus
C[C@@H]1CN([C@@H](C)CO)S(=O)(=O)c2ccc(-c3ccccc3)cc2O[C@H]1CN(C)C(=O)CN(C)C as listed: -2	-7
COc1cccc(CNC(=O)c2cc3c(c(-c4cccc(-c5ccc(C#N)cc5)c4)n2)[C@H](CCO)N([S@@](=O)C(C)(C)C)C3)c1 as listed: -32	-11
C[C@H](CO)N1C[C@H](C)[C@@H](CN(C)Cc2ccc(C(F)(F)F)cc2)Oc2c(NC(=O)c3nc4ccccc4s3)cccc2C1=O as listed: -3	-5
Cc1noc(C)c1NC(=O)Nc1ccc2c(c1)CC(=O)N([C@@H](C)CO)C[C@H](C)[C@@H](CN(C)Cc1ccc3c(c1)OCO3)O2 as listed: 4	5
O=C(C1CCCCC1)N1CC2(C1)[C@H](c1ccccc1)[C@@H](CO)N2Cc1ccc(Cl)cc1 as listed: -26	-17

Later entries
SMILES	Vaccinia inh	Vaccinia inh Venus
CCCC#Cc1ccc2c(c1)O[C@@H](CN(C)C(=O)c1cnccn1)[C@@H](C)CN([C@@H](C)CO)S2(=O)=O	-9	-5
Cc1cc(C(=O)Nc2cccc3c2O[C@@H](CN(C)Cc2ccc(C(=O)O)cc2)[C@@H](C)CN([C@@H](C)CO)C3=O)n(C)n1	12	4
COc1cccc(NC(=O)N[C@H]2C=C[C@H](CC(=O)NCc3ccncn3)O[C@H]2CO)c1	-1	6
C[C@H]1CN([C@@H](C)CO)C(=O)c2cc(C3=CCCC3)cnc2O[C@H]1CN(C)C(=O)Nc1ccc(F)cc1	7	7
O=C(Nc1ccccc1F)N[C@@H]1CC[C@H](CCNS(=O)(=O)c2ccc(Cl)cc2)O[C@@H]1CO	-24	-15
COC(=O)c1ccc(CN2CC(=O)N3[C@H](CO)[C@@H](c4ccc(-c5ccccc5F)cc4)[C@@H]3C2)cc1	13	5
C[C@@H]1CN([C@H](C)CO)C(=O)c2cccc(NC(=O)C3CCOCC3)c2O[C@@H]1CN(C)Cc1ccc(Oc2ccccc2)cc1	-2	11
C[C@@H]1CN([C@H](C)CO)C(=O)c2cc(C#Cc3ccccn3)cnc2O[C@H]1CN(C)Cc1cccnc1	17	14
CCC(=O)N1C[C@@H](C)[C@H](OC)CN(C)C(=O)c2cc(NC(=O)NC(C)C)ccc2OC[C@H]1C	2	-1
C[C@H]1CN([C@@H](C)CO)C(=O)c2cccc(NS(=O)(=O)c3cn(C)cn3)c2O[C@H]1CN(C)Cc1ccc(C(=O)Nc2ccccc2N)cc1	7	4
O=C(c1cccnc1)N1C[C@@H]2[C@H](c3ccccc31)[C@H](CO)N2C(=O)C1CCOCC1	1	13
CCCNC(=O)C[C@@H]1C[C@@H]2c3cc(NS(=O)(=O)c4cccc(OC)c4)ccc3O[C@@H]2[C@H](CO)O1	2	-3
C[C@@H]1CN([C@@H](C)CO)C(=O)c2cc(NC(=O)CCCN(C)C)ccc2O[C@@H](C)CCCCO[C@@H]1CN(C)S(=O)(=O)c1ccc(F)cc1	9	-3
CN(C)C(=O)c1cccc(-c2ccc3c(c2)[C@H]2[C@H](CCN2S(=O)(=O)c2ccccc2)[C@@H](CO)N3)c1	-26	-28
O=C(C[C@@H]1CC[C@H]2[C@@H](COC[C@@H](O)CN2C(=O)Nc2ccc(F)cc2)O1)NCCCN1CCOCC1	10	14
COc1ccc(NC(=O)Nc2ccc3c(c2)C(=O)N([C@H](C)CO)C[C@@H](C)[C@H](CN(C)C(=O)Nc2ccc(OC)cc2)O3)cc1	11	10
CC(C)CC#Cc1ccc2c(c1)O[C@@H](CN(C)C(=O)C1CCCCC1)[C@H](C)CN([C@H](C)CO)S2(=O)=O	?	nt
C[C@H]1CN([C@@H](C)CO)C(=O)c2cccc(NC(=O)NC3CCCCC3)c2O[C@H]1CN(C)Cc1ccc(-c2ccccc2)cc1	-20	-10
Cc1ccc(S(=O)(=O)Nc2ccc3c(c2)CC(=O)N([C@H](C)CO)C[C@H](C)[C@@H](CN(C)S(=O)(=O)c2c(C)noc2C)O3)cc1	3	-1
Cc1ccc(S(=O)(=O)N(C)C[C@@H]2Oc3ccc(NC(=O)Nc4ccccc4)cc3C(=O)N([C@H](C)CO)C[C@H]2C)cc1	4	5
C[C@H](O)C#Cc1ccc2c(c1)O[C@H](CN(C)Cc1ccccn1)[C@H](C)CN([C@H](C)CO)S2(=O)=O	20	7
O=C(C[C@H]1CC[C@H]2[C@@H](COC[C@H](O)CN2S(=O)(=O)c2cccc(Cl)c2)O1)Nc1ccccc1	-9	-3
CN1C(=O)c2cc(NC(=O)c3cccs3)ccc2OC[C@H]2O[C@H](CC(=O)NCCN3CCCCC3)CC[C@@H]21	1	-2
CC(C)CC#Cc1cnc2c(c1)C(=O)N([C@H](C)CO)C[C@@H](C)[C@H](CN(C)Cc1ccccc1C(=O)O)O2	0	-5
COc1ccc(S(=O)(=O)N2C[C@@H](O)COC[C@H]3O[C@@H](CC(=O)N[C@@H]4CCN(Cc5ccccc5)C4)CC[C@@H]32)cc1	-10	-1

Ordered by heavy-atom count (falling): part of the list above
SMILES	Vaccinia inh	Vaccinia inh Venus
O=C(C[C@@H]1CC[C@H]2[C@@H](COC[C@@H](O)CN2C(=O)Nc2ccc(F)cc2)O1)NCCCN1CCOCC1	10	14
COc1cccc(NC(=O)N[C@H]2C=C[C@H](CC(=O)NCc3ccncn3)O[C@H]2CO)c1	-1	6
O=C(c1cccnc1)N1C[C@@H]2[C@H](c3ccccc31)[C@H](CO)N2C(=O)C1CCOCC1	1	13

Following part
SMILES	Vaccinia inh	Vaccinia inh Venus
CO[C@@H]1CN(C)C(=O)c2cc(NC(=O)C3CC3)ccc2OC[C@H](C)N(C)C[C@H]1C	-2	-4
C[C@@H]1CN([C@H](C)CO)C(=O)Cc2cc(NC(=O)Nc3cccc4ccccc34)ccc2O[C@H]1CN(C)Cc1ccc(-c2ccccc2)cc1	2	-4
C[C@@H]1CN([C@@H](C)CO)C(=O)c2ccccc2-c2ccccc2CO[C@H]1CN(C)S(=O)(=O)c1ccc(F)cc1	-10	-10
C[C@@H]1CCCCO[C@@H](CN(C)C(=O)C2CCCCC2)[C@H](C)CN([C@@H](C)CO)C(=O)c2cc(NC(=O)CCCCCC(=O)Nc3ccccc3N)ccc2O1	19	9
CC(C)NC(=O)Nc1ccc2c(c1)C(=O)N([C@H](C)CO)C[C@@H](C)[C@H](CN(C)C(=O)C1CCCCC1)OCCCC[C@@H](C)O2	-18	-9
CC(=O)N1[C@H](CO)[C@H]2c3ccccc3N(C(=O)c3ccccc3)C[C@H]21	5	7
COc1ccc(NC(=O)Nc2ccc3c(c2)C(=O)N([C@H](C)CO)C[C@@H](C)[C@H](CN(C)C(=O)Cc2ccccc2)OCCCC[C@H](C)O3)cc1	-29	-23
COCC(=O)Nc1ccc2c(c1)C(=O)N(C)C[C@@H](OC)[C@H](C)CN(C(C)=O)[C@H](C)CO2	8	5
O=C(Nc1cccc(F)c1)N1CCCCN2[C@H](C1)[C@@H](c1ccc(C#CC3CC3)cc1)[C@@H]2CO	?	nt
CN(C)CC#Cc1ccc([C@@H]2[C@@H](CO)N3CCCCN(S(=O)(=O)c4ccccc4)C[C@@H]23)cc1	2	3
C[C@@H]1CCCCO[C@H](CN(C)S(C)(=O)=O)[C@@H](C)CN([C@H](C)CO)C(=O)c2cc(NC(=O)c3ccncc3)ccc2O1	17	9
C/C=C/c1ccc([C@@H]2[C@@H](CO)N3CCCCN(C(=O)Nc4ccc(OC)cc4)C[C@@H]23)cc1	-31	-26
CCC(=O)Nc1ccc2c(c1)C(=O)N(C)C[C@@H](OC)[C@H](C)CN(Cc1ccc(-c3ccccn3)cc1)[C@H](C)CO2	-7	-1
CCCNC(=O)[C@@H]1[C@@H](CO)[C@@H]2Cn3c(ccc(-c4cccc(F)c4)c3=O)[C@@H]2N1C(=O)CC	14	13
COCC(=O)N1CC[C@@H]2[C@H]1c1cc(-c3ccc(F)cc3)ccc1N(C)[C@@H]2CO	7	4
N#C[C@H]1[C@@H](c2ccc(C#Cc3cccc(F)c3)cc2)[C@@H](CO)N1C(=O)C1CCCC1	-4	-2
C[C@H](CO)N1C[C@H](C)[C@@H](CN(C)S(=O)(=O)c2ccc(F)cc2)Oc2ccc(NC(=O)Cn3cnnn3)cc2C1=O	-1	13
OC[C@H]1[C@@H](c2ccc(C#Cc3ccccc3F)cc2)[C@@H]2CN(Cc3cncnc3)CCCCN12	-34	-43
OC[C@@H]1[C@@H](c2ccc(C#Cc3ccccc3)cc2)[C@H]2CN(Cc3cncnc3)CCCCN12	-22	-30
C[C@@H]1CN([C@H](C)CO)C(=O)Cc2cc(NC(=O)Nc3ccc(F)cc3)ccc2O[C@@H]1CN(C)Cc1ccc(C(=O)O)cc1	15	23
Cc1noc(C)c1NC(=O)N[C@H]1CC[C@@H](CC(=O)Nc2ccc(-c3ccccc3)cc2)O[C@H]1CO	-6	-1
C[C@@H]1CN([C@H](C)CO)C(=O)c2cc(NC(=O)C3CC3)ccc2O[C@@H]1CN(C)S(C)(=O)=O	1	-2
O=C(Nc1ccccc1F)N[C@H]1CC[C@H](CCNC(=O)C2CC2)O[C@H]1CO	10	4
COCCNC(=O)C[C@H]1C[C@@H]2c3cc(NS(C)(=O)=O)ccc3O[C@@H]2[C@@H](CO)O1	16	10
Cc1cccc(S(=O)(=O)N[C@@H]2CC[C@@H](CCNC(=O)Nc3cc(F)ccc3F)O[C@@H]2CO)c1	-13	-1
C[C@H]1CCCCO[C@@H](CN(C)C(=O)CCC(F)(F)F)[C@@H](C)CN([C@@H](C)CO)C(=O)c2cc(NC(=O)C3CCCCC3)ccc2O1	-21	-15

Bioassay records deposited in PubChem BioAssay by Broad Institute.
